Cruzain noTriton – qHTS Assay for Promiscuous and Specific Inhibitors of Cruzain (without detergent); Potency, µM, inactives show max response, negative = inhibition, most hits filed as inhibitors; purified cruzain, Z-FR-AMC fluorescence, no detergent; Cruzipain (Trypanosoma cruzi), P25779; 200,000 tested, 2.3% active;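 also: plate controls were enzyme without inhibitor for no effect and buffer without enzyme for full effect; nearly all actives have a fitted effect of over 40% in size; top concentration of the series not given in the record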
Target sequence (P25779 123-467 limits assumed): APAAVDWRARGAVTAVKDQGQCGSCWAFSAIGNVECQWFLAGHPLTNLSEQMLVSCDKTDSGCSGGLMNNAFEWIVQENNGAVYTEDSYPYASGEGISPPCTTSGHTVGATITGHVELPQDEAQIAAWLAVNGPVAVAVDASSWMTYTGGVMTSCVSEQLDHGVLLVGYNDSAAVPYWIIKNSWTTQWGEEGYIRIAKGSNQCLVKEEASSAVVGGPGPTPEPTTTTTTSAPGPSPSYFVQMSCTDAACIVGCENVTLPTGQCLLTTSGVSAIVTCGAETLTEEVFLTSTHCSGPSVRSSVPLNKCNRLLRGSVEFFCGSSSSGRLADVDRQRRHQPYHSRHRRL
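Detergent-free condition (0.00005% Triton X-100) in acetate buffer pH 5.5 with DTT. 1.5 nM enzyme and compound were pre-mixed 15 min, then 2 uM Z-FR-AMC substrate added; reaction progress from fluorescence change between first and third reads (60 s).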
NS1 function inh – qHTS Assay for Inhibitors of Influenza NS1 Protein Function; S. cerevisiae slowed by influenza A NS1, growth recovery by OD600; Potency, µM (highest dose often 46.1 µM), without a hit: at the top dose activity, positive = more growth; 270,000 tested, 0.4% active; active means well fitted rising curve with a large enough effect; inconclusive means small, poorly fitted or top-dose-only effect; inactive means no such curve, though single readings can be large or run the other way; also: nearly all actives have a fitted effect of over 50% in size
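S. cerevisiae expressing influenza A NS1, grown in glucose, washed, then diluted 1:100 into pH 6.0 -URA galactose medium with 23 nl compound. Growth recovery read as OD600; NS1-free strain serves as control.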
SARS PLP yeast – qHTS of Yeast-based Assay for SARS-CoV PLP; S. cerevisiae expressing SARS-CoV PLpro, growth rescue; control for the full effect not named in the record; Potency, µM (top dose mostly 32.9 µM), for inactives: at the top dose activity, positive = growth rescue; 330,000 tested, 0.19% active; AID 485353, 2010; active means well fitted rising curve with a large enough effect; inconclusive means small, poorly fitted or top-dose-only effect; inactive means no such curve, though single readings can be large or run the other way; also: 0% is about no effect; nearly all actives have a fitted effect of over 55% in size; growth read by luminescence after 48 h
2A StopGo – High Throughput Screening for Foot and Mouth Disease Virus Antivirals; human cells with a luciferase reporter of 2A StopGo recoding; control for the full effect not named in the record; Potency, µM (top dose mostly 57.9 µM), for inactives: at the top dose signal change, negative = less light; 410,000 tested, 1.2% active; AID 1159524, 2015; active = well fitted falling curve with a large enough effect; inconclusive = small, poorly fitted or top-dose-only effect; inactive = no such curve, though single readings can be large or run the other way; tested in HEK293T cells; also: % is scaled to controls: 0 for no effect and ±100 for the full control effect; nearly all actives have a fitted effect of over 45% in size; luciferase light after 4 h
Lassa entry inh – qHTS for Inhibitors of binding or entry into cells for Lassa Virus; Lassa virus pseudotype entry inhibition, cell reporter; control for the full effect not named in the record; Potency, µM (highest dose often 37.9 µM), for inactives: top-dose activity change, negative = inhibition, actives largely listed as inhibitors; 300,000 tested, 1.2% active; AID 540256, 2011; active means well fitted inhibition curve with a large enough effect; inconclusive means small, poorly fitted or top-dose-only effect, or effect the other way; inactive means flat fitted curve, though single readings scatter; tested in HEK293 cells; also: % is scaled to controls: 0 for no effect and ±100 for the full control effect; nearly all actives have a fitted effect of over 50% in size; luciferase read-out
Marburg entry inh – qHTS for inhibitors of binding or entry into cells for Marburg Virus; Marburg virus pseudotyped entry inhibition, cell reporter; control for the full effect not named in the record; about a third of the inactives were read at about 46 µM; Potency, µM (highest dose often 37.8 µM), without a hit: at the top dose activity change, negative = inhibition, actives largely listed as inhibitors; 300,000 tested, 1.8% active; AID 540276, 2011; active = well fitted inhibition curve with a large enough effect; inconclusive = small, poorly fitted or top-dose-only effect, or effect the other way; inactive = flat fitted curve, though single readings scatter; tested in HEK293 cells; about a fifth of its hits are not listed in these tables; also: % is scaled to controls: 0 for no effect and ±100 for the full control effect; luciferase read-out
Cruzain Triton – qHTS Assay for Promiscuous and Specific Inhibitors of Cruzain (with detergent) | Cruzipain (Trypanosoma cruzi), P25779 | purified cruzain, Z-FR-AMC fluorescence, 0.01% Triton | Potency, µM, for the others: max response, negative = inhibition, actives largely listed as inhibitors | 200,000 tested, 0.43% active | AID 1478, 2009;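 also: plate controls were neutral wells for no effect and buffer without enzyme for full effect; nearly all actives have a fitted effect of over 40% in size; top concentration of the series not given in the record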
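Sodium acetate buffer (100 mM, pH 5.5) containing 5 mM DTT and 0.01% Triton X-100 hosted 1.5 nM cruzain and test compound for 15 min at room temperature. Cleavage of 2 uM Z-FR-AMC was then tracked by fluorescence.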
RE007 growth inh – qHTS Assay for Inhibitors of the HIV-1 protein Vpr; S. pombe RE007 Vpr strain, BacTiter-Glo ATP luminescence, 24 h; control for the full effect not named in the record; Potency, µM (top dose mostly 92.2 µM), without a hit: at the highest dose activity change, negative = less growth; 360,000 tested, 0.21% active; AID 651644, 2012; active = well fitted falling curve with a large enough effect; inconclusive = small, poorly fitted or top-dose-only effect; inactive = no such curve, though single readings can be large or run the other way;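 also: % is scaled to controls: 0 for no effect and ±100 for the full control effect; nearly all actives have a fitted effect of over 50% in size; the assay follows cell death caused by Vpr and the record does not say whether a fall means rescue or toxicity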
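Fission yeast RE007 carrying one integrated HIV-1 vpr copy, seeded at OD 0.01 in PMG+AL medium with 23 nL pinned compound. Grown 24 h at 30 degrees; viability read by BacTiter-Glo luminescence after 5 min.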
* hit, by the source's call; [ ] = remark or other dose. Unless noted, calls follow the shape of the dose curve; as a rule, active = well fitted curve in the direction sought with a large enough effect; inconclusive = small, poorly fitted or top-dose-only effect, or another doubt; inactive = no such curve, though single readings can be large; an effect the other way counts as inactive or inconclusive. Potency is read from the fitted curve at half-maximal effect.

For CCOc1ccccc1-n1c(SCC(=O)N2CCCc3ccccc32)nnc1-c1cccnc1 the results were Cruzain noTriton 9%, NS1 function inh -1%, SARS PLP yeast -3%, 2A StopGo 1%, Lassa entry inh inconclusive, Marburg entry inh -16%, Cruzain Triton -2.1% and RE007 growth inh -5%.
For CCOC(=O)c1c(C=O)c2ccccc2n1Cc1ccccc1F the results were NS1 function inh -1%, SARS PLP yeast -1%, 2A StopGo -14% and RE007 growth inh -9%.
CCN(CC)c1nc(-c2nn[nH]n2)nc(N(CC)CC)n1 was read as Cruzain noTriton -7%, NS1 function inh 0%, SARS PLP yeast 5%, 2A StopGo 5%, Lassa entry inh 0%, Marburg entry inh 0%, Cruzain Triton -3.3% and RE007 growth inh 16%.
For O=[N+]([O-])c1ccc(N2CCNCC2)c2ncccc12 the results were Cruzain noTriton -4%, NS1 function inh 9%, SARS PLP yeast -2% and Cruzain Triton -9.5%.
`CN(C(=O)C1CCN(S(=O)(=O)c2cccc3nonc23)CC1)C1CCCCC1` gave NS1 function inh -16%, SARS PLP yeast 1%, 2A StopGo -14% and RE007 growth inh 4%.
`O=C(COC(=O)/C=C/c1ccccc1[N+](=O)[O-])NC1CCS(=O)(=O)C1` (stereo not drawn) gave SARS PLP yeast -1%, 2A StopGo -7%, Lassa entry inh -20%, Marburg entry inh 6%[46.1 µM] and RE007 growth inh 10%.
Screening COc1ccc(OC)c(NC(=O)c2cc(CN3CCCC3)on2)c1 returned Cruzain noTriton -22%, 2A StopGo -8%, Lassa entry inh -1%[46.1 µM] and Cruzain Triton -1.8%.
For COC(=O)c1ccc(OCC2c3cc(OC)c(OC)cc3CCN2C(=O)Cc2ccc(OC)cc2)cc1 (stereo not drawn) the results were Cruzain noTriton -1%, 2A StopGo inconclusive, Lassa entry inh inconclusive and Cruzain Triton 0.2%.
COc1ccc(OC)c(/C=N/NC(=O)C(=O)N2CCCC2)c1 was read as NS1 function inh 3%, SARS PLP yeast 1%, 2A StopGo 7%, Lassa entry inh -24%[46.1 µM], Marburg entry inh -1%[46.1 µM] and RE007 growth inh 10%.
Cc1ccc(Cl)cc1NC(=O)CCN1C(=O)C2C3CCC(C3)C2C1=O (stereo not drawn) was read as NS1 function inh -3%, SARS PLP yeast 0%, 2A StopGo 9% and RE007 growth inh -1%.
For CC(=O)Nc1ccccc1N(C)S(=O)(=O)c1ccc(C)cc1 the results were Cruzain noTriton 4%, NS1 function inh -53%, SARS PLP yeast 14%, 2A StopGo inconclusive, Lassa entry inh -25%, Marburg entry inh inconclusive, Cruzain Triton 2.0% and RE007 growth inh 2%.
Screening COC(=O)C1CN(C(=O)COc2ccc(Cl)cc2Cl)c2ccccc2O1 (stereo not drawn) returned NS1 function inh -3%, SARS PLP yeast -6%, 2A StopGo 7% and RE007 growth inh 3%.
For COc1cccc(NC(=O)C(C)SCc2ccccc2)c1 (stereo not drawn) the results were NS1 function inh -8%, SARS PLP yeast -1%, 2A StopGo 28%, Lassa entry inh 7%[46.1 µM], Marburg entry inh 17%[46.1 µM] and RE007 growth inh -9%.
`Cc1cc(OC(C)C(=O)NNC(=O)Nc2ccc(F)cc2F)cc(C)c1Cl` (stereo not drawn) gave NS1 function inh 15%, SARS PLP yeast -5%, 2A StopGo 25%, Lassa entry inh inconclusive, Marburg entry inh inconclusive and RE007 growth inh 4%.
For CC1(c2ccc([N+](=O)[O-])cc2)NC(=O)N(CC(=O)Nc2cccnc2Cl)C1=O (stereo not drawn) the results were SARS PLP yeast 0%, 2A StopGo -20%, Lassa entry inh 13%, Marburg entry inh 1% and RE007 growth inh -16%.
Screening CC(CCc1ccccc1)NC(=O)[C@@H]1Cc2ccccc2CN1 (stereo partly drawn) returned NS1 function inh 4%, SARS PLP yeast -1%, 2A StopGo -16% and RE007 growth inh -1%.
Screening Cc1c(OCC(=O)N2CCC(C(=O)O)CC2)ccc2c3c(c(=O)oc12)CCCC3 returned NS1 function inh 14%, SARS PLP yeast 3%, 2A StopGo -6% and RE007 growth inh -8%.
For Cc1nc(C(F)(F)F)ccc1C(=O)Nc1ccc(C(F)(F)F)cn1 the results were NS1 function inh -2%, SARS PLP yeast 0%, 2A StopGo -18%, Lassa entry inh 14%[46.1 µM], Marburg entry inh 14%[46.1 µM] and RE007 growth inh -18%.
Screening COc1cccc(C(=O)C2CCCN(Cc3cccn3-c3cccnc3)C2)c1 (stereo not drawn) returned NS1 function inh -3%, SARS PLP yeast 0%, 2A StopGo -27%, Lassa entry inh 5%[46.1 µM], Marburg entry inh inconclusive and RE007 growth inh 4%.
For CCOC(=O)Cn1c(=O)n(C2CCCCC2)c2nc(-c3ccc(C(C)C)cc3)nc(C(N)=O)c21 the results were Cruzain noTriton -7%, 2A StopGo -11%, Lassa entry inh 30%[46.1 µM] and Cruzain Triton 1.1%.
Cc1cccc(/N=C/c2c(O)n(Cc3ccc4c(c3)OCO4)c(=O)c3ccccc23)n1 was read as NS1 function inh 1%, SARS PLP yeast 2%, 2A StopGo -9%, Lassa entry inh 11%, Marburg entry inh 0% and RE007 growth inh -10%.
`Cc1cccc(C)c1N1C(=O)[C@@H]2C(c3ccccc3Cl)=NO[C@@H]2C1=O` gave NS1 function inh -3%, SARS PLP yeast 0%, 2A StopGo 52%[activator], Lassa entry inh 20%[46.1 µM], Marburg entry inh 9%[46.1 µM] and RE007 growth inh -8%.
For Cc1ccc(SCCCn2cnc3ccccc3c2=O)cc1 the results were Cruzain noTriton 8%, NS1 function inh -38%, SARS PLP yeast -6%, 2A StopGo 3%, Lassa entry inh -21%, Marburg entry inh 3%, Cruzain Triton -4.4% and RE007 growth inh -4%.
Screening CC(=O)Nc1c2c(nn1-c1ccccc1)CSC2 returned NS1 function inh 0%, SARS PLP yeast 7%, 2A StopGo -14% and RE007 growth inh -7%.
O=C(CNc1ccc(Br)cc1)NNC1=NCCC1 was read as Cruzain noTriton 1%, NS1 function inh 8%, SARS PLP yeast 1%, 2A StopGo -15%, Lassa entry inh 9%, Marburg entry inh 3%, Cruzain Triton -2.3% and RE007 growth inh -4%.
`CCOC(=O)c1ccc(CN(Cc2ccc(F)cc2)S(=O)(=O)c2ccc(F)c(C(=O)Nc3c(C)cccc3C)c2)cc1` gave Cruzain noTriton inconclusive, 2A StopGo -9%, Lassa entry inh 13%[46.1 µM] and Cruzain Triton 0.9%.
`O=C(O)c1cc(-c2ccccc2)c(N2CCOCC2)s1` gave Cruzain noTriton -21%, NS1 function inh 0%, SARS PLP yeast 8%, 2A StopGo -12%, Lassa entry inh 6%, Marburg entry inh 7%, Cruzain Triton 0.2% and RE007 growth inh -13%.
Screening CSc1cccc(NC(=O)CN2C(=O)COc3ccc(S(=O)(=O)N4CCOCC4)cc32)c1 returned NS1 function inh -16%, SARS PLP yeast 0%, 2A StopGo -2% and RE007 growth inh 2%.
`O=C(Nc1ccnc(-c2ccncc2)n1)C1CC1` gave NS1 function inh -5%, SARS PLP yeast 0%, 2A StopGo -6%, Lassa entry inh inconclusive, Marburg entry inh 6%[46.1 µM] and RE007 growth inh -4%.
`O=C(NCc1cccnc1)c1ccc(NS(=O)(=O)c2ccccc2)cc1` gave NS1 function inh 3%, SARS PLP yeast inconclusive, 2A StopGo -23%, Lassa entry inh inconclusive, Marburg entry inh inconclusive and RE007 growth inh -9%.
Screening Cc1ccc2[nH]c(C)c(CC(=O)NCc3ccccc3)c2c1 returned NS1 function inh 12%, SARS PLP yeast 3%, 2A StopGo -11%, Lassa entry inh 19%[46.1 µM], Marburg entry inh -23%[46.1 µM] and RE007 growth inh -6%.
Screening CC(C)CN1CCN(Cc2ccc3ncccc3c2)CC1CCO (stereo not drawn) returned NS1 function inh -4%, SARS PLP yeast 0%, 2A StopGo 5%, Lassa entry inh inconclusive, Marburg entry inh -22%[46.1 µM] and RE007 growth inh 9%.
Screening C=CCc1cc(Cl)ccc1OCCCNCCO returned NS1 function inh -1%, SARS PLP yeast 1%, 2A StopGo -11% and RE007 growth inh 7%.
Screening O=C(COC(=O)CC(c1ccccc1)c1ccccc1)NCc1ccccc1 returned Cruzain noTriton 8%, NS1 function inh -16%, SARS PLP yeast 8%, 2A StopGo inconclusive, Lassa entry inh 12µM*, Marburg entry inh 1%, Cruzain Triton -4.1% and RE007 growth inh 11%.
Screening c1ccc2[nH]c(CCNC3CCCCC3)nc2c1 returned Cruzain noTriton -7%, NS1 function inh 2%, SARS PLP yeast 4%, 2A StopGo 2%, Lassa entry inh -5%, Marburg entry inh -22%, Cruzain Triton 5.3% and RE007 growth inh 6%.
`CCN(C(=O)CSc1nc2ccccc2c(=O)n1C(C)COC)C1CCS(=O)(=O)C1` (stereo not drawn) gave SARS PLP yeast -1%, 2A StopGo -12%, Lassa entry inh 0%[46.1 µM], Marburg entry inh 3%[46.1 µM] and RE007 growth inh 9%.
`O=C(NC1(C(F)(F)F)NC(=O)N(c2ccc(F)cc2)C1=O)c1cccs1` (stereo not drawn) gave Cruzain noTriton 3%, NS1 function inh -3%, SARS PLP yeast 0%, 2A StopGo -8%, Lassa entry inh -7%, Marburg entry inh 8%, Cruzain Triton -4.2% and RE007 growth inh 1%.
`COc1ccc(-c2coc3cc4oc(=O)cc(C)c4cc23)cc1F` gave Cruzain noTriton -27%, NS1 function inh 16%, SARS PLP yeast 2%, 2A StopGo 4%, Lassa entry inh inconclusive, Marburg entry inh inconclusive, Cruzain Triton 2.5% and RE007 growth inh -4%.
`Cc1cc(Cl)ccc1NC(=O)NC1CCN(S(=O)(=O)c2ccc(F)cc2)CC1` gave Cruzain noTriton 7%, NS1 function inh 9%, SARS PLP yeast inconclusive, 2A StopGo inconclusive, Lassa entry inh inconclusive, Marburg entry inh -26%[46.1 µM], Cruzain Triton -0.7% and RE007 growth inh -1%.
